E coli growth – E. coli growth inhibition, primary screen, OD600 | Escherichia coli growth, 23 h; stronger effect = lower value | OD600 absorbance (concentration not given with the values) | 330,000 compounds, 0.21% hits | AID 1053175, 2014;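 active means OD600 absorbance below the run mean of sample wells minus 3.6 SD, in any replicate, cut at about 0.56 in these data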;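 further: stock transfer was 300 nL into about 60 µL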
B2AR ag – beta2AR agonists driving receptor internalization, primary screen, cell-based, FAP fluorogen, flow cytometry; 340,000 compounds, 0.43% hits; Am2.2-beta2AR cells; reference of the scale not given here; response, % (test concentration not listed); AID 504454, 2011; Beta-2 adrenergic receptor (Homo sapiens), P07550;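 active means response above a set limit, near 3 SD of response in nonfluorescent compounds, cut at about 42% in these data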;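 further: stock transfer was 100 nL into about 11 µL; a reference agonist was the positive control; negative values mostly stem from fluorescent compounds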
Target sequence (P07550 whole entry, looked up): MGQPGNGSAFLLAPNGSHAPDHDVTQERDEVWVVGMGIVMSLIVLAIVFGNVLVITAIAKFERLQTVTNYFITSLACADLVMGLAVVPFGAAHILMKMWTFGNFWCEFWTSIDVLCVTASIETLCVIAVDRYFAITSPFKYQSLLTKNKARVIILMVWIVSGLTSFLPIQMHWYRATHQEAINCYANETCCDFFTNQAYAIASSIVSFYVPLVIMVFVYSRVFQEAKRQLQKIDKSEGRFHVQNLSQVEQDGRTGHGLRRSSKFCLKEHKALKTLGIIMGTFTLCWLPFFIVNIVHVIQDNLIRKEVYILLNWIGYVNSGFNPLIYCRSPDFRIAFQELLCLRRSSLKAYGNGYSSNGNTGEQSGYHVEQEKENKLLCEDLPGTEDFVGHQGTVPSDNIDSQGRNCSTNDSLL
HNF4A DNA FP – change in binding of human HNF4A to DNA, primary screen, biochemical, fluorescence polarization, FITC-DNA; 1 h; activity change, % at 10 µM; 360,000 compounds, 0.3% hits; in the data active means activity change above about 30%, passing the limit was not always enough;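 further: controls were the assay level and a saturating level of protein; the project sought stronger binding though the title names inhibitors; some compounds called inactive have numbers as strong as hits; positive values seem to mean higher polarization but the record does not say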
UCH37 inh – inhibitors of human UCH37 deubiquitinase, primary screen, biochemical, Ub-AMC cleavage, fluorescence. Ubiquitin carboxyl-terminal hydrolase isozyme L5 (Homo sapiens), Q9Y5K5. purified proteasome/UCH37. inhibition, % (concentration not given with the values). 330,000 compounds, 0.33% hits;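 active means mean of two replicates above 20%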;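 further: 0% = compound-free wells with enzyme and 100% = wells lacking proteasome; stock transfer was 100 nL into about 20 µL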
Target sequence (Q9Y5K5 whole entry, looked up): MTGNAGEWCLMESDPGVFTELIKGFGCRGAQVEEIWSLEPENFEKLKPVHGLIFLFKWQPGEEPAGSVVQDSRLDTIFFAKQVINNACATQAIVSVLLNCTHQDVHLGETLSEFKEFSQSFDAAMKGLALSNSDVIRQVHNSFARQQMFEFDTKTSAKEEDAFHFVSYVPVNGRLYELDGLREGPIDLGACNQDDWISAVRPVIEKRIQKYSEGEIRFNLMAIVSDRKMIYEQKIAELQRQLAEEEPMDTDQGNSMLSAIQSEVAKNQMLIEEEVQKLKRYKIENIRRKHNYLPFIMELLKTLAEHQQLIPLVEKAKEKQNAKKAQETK
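Assay system: Proteasome-bound UCH37. Buffer or medium: pH 7.4 Tris-HCl (50 mM) with ovalbumin, ATP-MgCl2, DTT. Incubation: 30 min preincubation with enzyme, 25 min cleavage at room temperature. Measured by: fluorescence, ex 355 nm, em 460 nm. Read-out basis: percent inhibition. Control set: wells without proteasome as full block, compound-free enzyme plus substrate as uninhibited.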
A1 inh – caspase 3/7 activation in MEF A1-2A-BIM cells, primary screen, A1 inhibitor project, cell-based, luminescence, HTS; caspase activation, % (test concentration not listed); Caspase-Glo 3/7 luminescence, 3 h; percent of clofoctol response, vehicle zero; AID 2462, 2010; 330,000 compounds, 0.066% hits;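 active means over half of replicate activation scores above 10%, or exactly half above 10 with the replicate mean above 10; inconclusive means replicate mean below 10 yet half the replicates above 10; inactive means over half of replicates below 10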;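 further: wells of about 30 µL received 50 nL stock; many hits fall short of the cut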
Vif TR-FRET – inhibitors of Vif binding to APOBEC3G peptide, primary screen, biochemical, TR-FRET, GST-Vif 1-94, biotin-A3G peptide, dose response retest (AID 1117319) | Virion infectivity factor (Human immunodeficiency virus type 1 group M subtype B (isolate … | TR-FRET GST-Vif / biotin-A3G peptide binding; higher % means a stronger effect; test concentration not given here; strong numbers were not always called active | inhibition, %, or IC50 in µM where a hit was titrated | 260,000 compounds, 0.57% hits;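 active means above the screen mean plus three standard deviations and confirmed in dose response; inconclusive means results disagree or hit not tested in dose response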;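 further: Vif residues 1-94 fused to GST binding biotinylated APOBEC3G peptide 110-148; 0% = full assay without inhibitor and 100% = GST in place of GST-Vif; retest series ran down from 100 µM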
LANA-H2A inh – blockers of LANA interaction with H2A/H2B – biochemical, FP readout, HTS, primary screen | Protein LANA1 (Human herpesvirus 8 type P (isolate GK18)), Q9QR71 | cell-free LANA-H2A/H2B peptide, fluorescence polarization | inhibition, % (test concentration not listed) | 320,000 compounds, 0.6% hits | AID 2629, 2010; in the data active means inhibition mostly above about 10%, no sharp cut-off; inactive means mostly below about 6.7%;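 further: stock transfer was 7.5 nL into about 10 µL; 0% = median of vehicle wells and 100% = median of positive control wells; one replicate is shown; the record names a cut of 25% in any replicate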
* hit, by the source's call; u = inconclusive; x = not tested or not shown; & = joins results of further samples. The order is random; about 2.1% have a hit in one of these screens.

SMILES	E coli growth	B2AR ag	HNF4A DNA FP	UCH37 inh	A1 inh	Vif TR-FRET	LANA-H2A inh
COCCN(CC(=O)Nc1ccccc1C(F)(F)F)C(=O)/C=C/c1ccc2ccccc2n1	0.648	-3.3	1.7	1.4	-1.3	-10.4%	1.8
CCCCn1c(N)c(N(CC)C(=O)Cc2ccc(S(=O)(=O)N3CCOCC3)s2)c(=O)[nH]c1=O	0.664	-3.9	0.9	4.5	0.6	-0.2%	-0.5
O=C(Nc1ccc2c(c1)OCO2)c1cnc2n(c1=O)CCS2	0.718	-6.6	-3.2	2.2	-0.6	16.3%	-0.1
CCOC(=O)CSc1nc2ccc(N3CCOCC3)cc2c(=O)n1Cc1ccccc1	0.738	5.8	2.6	-36.2	-0.4	22.8%	-0.1
CCN(CC)C(=O)c1cc2cc([N+](=O)[O-])ccc2s1	0.725	-3.2	0.8	3.4	0.3	-3.8%	5.2
Cc1ccc(S(=O)(=O)N2CC3CCCN3c3ccc(C(F)(F)F)cc32)cc1 (stereo unspecified)	0.695	3.8	-3.0	1.7	0.8	-8.0%	-1.3
COc1ccc(S(=O)(=O)Cc2ccc(C(=O)N3CCN(c4ccccc4F)CC3)o2)cc1	0.739	-6.7	4.3	5.0	0.3	-3.6%	-0.7
Cc1cc(NC(=O)c2cc(-c3ccccc3C)nc3ccccc23)no1	0.66	-15.9	3.7	5.4	0.6	-10.3%	-0.2
CN1/C(=C\C(=O)COC(=O)c2ccc(O)c(O)c2)C(C)(C)c2ccccc21	0.682	x	x	-9.5	1.1	5.2%	6.2
N#Cc1cn(-c2cccc(C(F)(F)F)c2)c(=O)[nH]c1=O	0.623	-0.8	-3.0	4.9	0.3	7.8%	9.9
CC(CCCC(C)(C)O)NC(=O)c1ccc2oc(CCc3ccccc3)nc2c1 (stereo unspecified)	0.691	-0.6	2.2	1.7	-0.5	5.2%	1.3
O=C(Nc1ccc2c(c1)CCC2)c1cc(F)cc(F)c1	0.668	-5.1	-3.1	2.7	-3.9	-1.4%	x
O=C(ONC1=NCCCCC1)c1cccc([N+](=O)[O-])c1	0.664	-4.6	1.2	4.4	-0.1	-0.2%	-0.6
COC(=O)c1ccccc1S(=O)(=O)N1CCC(C(=O)OCC(=O)NC2CCCCC2C)CC1 (stereo unspecified)	0.704	-1.8	0.1	-1.0	x	x	x
CCOC(=O)N1CCN(C(=O)CS(=O)Cc2nc(-c3ccc(C)cc3)oc2C)CC1 (stereo unspecified)	0.684	-1.3	6.3	0.3	0.6	3.1%	2.7
COc1cccc(-c2c(C(=O)N/N=C/c3cccnc3)nnn2-c2nonc2N)c1	x	-4.2	-2.4	x	1.4	x	8.6
Cc1cc(CNC(=O)c2cccc([N+](=O)[O-])c2)c2ccccc2n1	0.731	-10.5	-3.9	1.0	-0.6	-1.4%	-3.4
CCCNC(=O)C(=O)Nc1ccc(N(C)C)cc1	0.742	-2.7	-0.9	1.0	1.9	17.1%	6.1
COc1ccc(C(=O)N2CCCC2)cc1S(=O)(=O)N1CCC(C)CC1	0.769	2.2	-0.7	1.3	-0.1	-3.4%	-0.9
CC(=Nc1ccc(C)c(C)c1)C1=C(O)CSC1=O	0.777	-23.2	-1.7	7.5	0.4	u	4.2
O=C(Nc1ncc(Cc2cc(Cl)ccc2Cl)s1)c1ccc([N+](=O)[O-])cc1	0.711	9.1	2.0	3.0	1.5	1.7%	-1.4
COc1ccccc1-n1c(C)cc(C=O)c1C	0.749	4.4	3.9	5.8	0.4	-3.9%	2.5
COC(=O)C1=C(C)NC(=S)NC1/C=C/c1ccccc1 (stereo unspecified)	0.643	-0.9	-1.2	1.1	0.5	x	1.6
N#Cc1ccc(Cl)cc1NC(=O)COC(=O)c1cccc(S(=O)(=O)N2CCOCC2)c1	0.605	6.2	0.7	-0.3	-0.7	32.3%	-0.5
C#CC1(NC(=O)NC(C)(C)C)CCCCC1	0.667	3.8	-3.0	1.3	0.6	3.0%	2.1
COc1ccc(N(CC(=O)Nc2ccc(C)cn2)S(=O)(=O)c2c(C)noc2C)cc1	0.755	-15.0	3.3	-0.2	1.7	1.4%	-9.9
COc1ccc(C)cc1Nc1n[n+](-c2ccccc2)c(-c2ccc(N(C)C)cc2)s1	0.681	-279.2	67.6*	2.4	0.8	x	-0.7
Cc1cc2c3c(c1)C(C)CC(C)(C)N3C(=O)C2=C(C#N)C#N (stereo unspecified)	0.66	-1.0	3.9	6.7	1.2	10.4%	-0.8
COc1ccccc1S(=O)Cc1ccc(C(=O)NCc2ccccc2Cl)o1 (stereo unspecified)	0.75	-10.8	2.9	5.1	-0.2	-6.2%	1.5
COc1ccc(Cl)cc1NC(=O)CCCC(=O)c1ccccc1	0.694	-6.5	2.5	-0.4	0.3	4.9%	-2.7
CCOC(=O)N=S(N)(=O)c1ccccc1 (stereo unspecified)	0.678	-5.5	1.7	1.1	0.4	4.1%	1.7
Cc1ccsc1CN(C(=O)c1ccccc1)C1CCS(=O)(=O)C1 (stereo unspecified)	0.701	-1.7	2.2	-0.5	-0.5	x	1.7
O=C(Cc1ccc(NC(=O)C2CCN(C(=O)CCc3ccccc3)CC2)cc1)Nc1ccc(C(=O)N2CCOCC2)cc1	0.712	4.3	-0.7	2.7	x	7.8%	x
O=C(CCCN1C(=O)c2ccccc2C1=O)OC1CSCC1NC(=O)c1ccccc1 (stereo unspecified)	0.767	-10.1	-0.3	2.0	-0.4	18.4%	-0.8
Cc1c(NC(=O)Nc2cc(F)c(F)cc2Cl)c(=O)n(-c2ccccc2)n1C	0.643	-11.2	3.3	0.4	-0.5	x	-2.8
CCOC(=O)N1CCN(C(=O)CSc2ccccc2)CC1	0.651	-4.9	2.0	6.8	2.1	-0.9%	1.8
CCc1cc(C(=O)NCC2CCCO2)sc1C (stereo unspecified)	0.716	2.9	1.8	-1.2	0.1	x	-5.4
O=C(O)Cn1cccc1C(=O)c1ccccc1	0.768	2.9	0.6	0.8	0.4	u	-0.5
CC(C)NS(=O)(=O)c1ccc(NC(=O)C2CC3C=CC2C3)cc1 (stereo unspecified)	0.699	-3.6	-0.7	4.1	-0.4	4.6%	8.6
Cc1nc2nc(C)c(NS(=O)(=O)c3ccc(C(C)(C)C)cc3)c(=O)n2[nH]1	0.681	3.4	-2.3	-0.5	-0.3	x	1.2
Cc1occc1-c1nnc(SCC(=O)N2CCN(c3ccccc3F)CC2)n1C	0.725	x	x	1.5	u	2.0%	2.4
CCOC(=O)c1cnc(SC2CC(=O)N(c3ccc(C)cc3)C2=O)nc1N (stereo unspecified)	0.723	-4.1	-1.9	2.6	-0.1	-3.4%	0.1
COc1ccccc1CNC(=O)c1c(N)n(CCCN2CCOCC2)c2nc3ccccc3nc12	0.669	26.1	8.6	-236.3	x	3.5%&12.6%	x
COc1ccc(C(=O)NCCS(=O)(=O)NCc2ccccc2OC)cc1	0.696	5.8	0.3	0.2	-0.3	1.3%	2.5
CCN1CCN(C(=O)c2ccc3nc(-c4ccccc4)c(-c4ccccc4)nc3c2)CC1	0.704	-8.5	3.1	-315.3	-0.7	-0.3%	-0.4
CCCCn1c(N)c(N(CCOC)C(=O)COC(=O)CCOc2ccc(C)cc2)c(=O)[nH]c1=O	0.7	6.0	-2.5	2.4	0.4	-17.8%	-12.1
CC(=O)C1=C(C)OC2(O)c3ccccc3C(=O)C12O (stereo unspecified)	0.64	-6.9	4.0	77.4*	0.5	u	-0.3
COc1cccc(CNC(=O)CC(NC(=O)c2ccccc2)c2ccccc2)c1 (stereo unspecified)	0.724	-1.0	4.2	-2.1	0.9	x	32.0*
COc1cccc(NC(=O)CN(C)C(=O)CCN2C(=O)C3CC=CCC3C2=O)c1 (stereo unspecified)	0.612	2.4	5.0	0.1	x	4.2%	x
CC(=O)N=C1SC2CS(=O)(=O)CC2N1Cc1ccc(C)cc1 (stereo unspecified)	0.662	4.8	-2.3	1.6	0.6	0.6%	4.1
CS(=O)(=O)N(CC(=O)N1CCOCC1)Cc1ccccc1	0.634	8.1	2.1	2.7	0.1	2.4%	7.0
CC(C)CN1CCC(=O)N(CCSc2ccc(Br)cc2)CC1	0.65	-5.4	5.5	4.3	-1.9	x	-2.1
COCc1ccc(C(=O)OC(C)C(=O)Nc2c(C)n(C)n(-c3ccccc3)c2=O)cc1 (stereo unspecified)	0.699	-10.0	-1.3	1.3	x	x	x
O=S(=O)(Nc1ccccc1Cl)c1ccc2[nH]c(=S)oc2c1	0.691	5.4	3.0	-1.9	0.2	1.9%	-0.4
Cc1cccc(NC(=S)N(Cc2cccs2)Cc2cc3cc(C)cc(C)c3[nH]c2=O)c1	0.713	2.2	-4.1	4.0	0.1	0.1%	2.2
O=C(Cc1c(F)cccc1Cl)N/N=C/c1cccnc1	x	-7.6	1.5	x	-0.4	x	-1.2
CN(C)S(=O)(=O)c1cccn1-c1ncc(C(F)(F)F)cc1Cl	0.739	-7.4	3.5	-0.7	1.9	2.5%	-0.2
Cc1cc(C)nc(NC(=S)Nc2cccc(F)c2)c1	0.691	0.1	4.9	5.0	0.7	19.5%	-8.9
NNc1nc(Nc2ccc([N+](=O)[O-])cc2)nc(N2CCCCCC2)n1	0.67	8.9	1.5	4.4	0.1	-6.6%	3.7
O=C(CSc1ncn[nH]1)NC1CC2CCC1C2 (stereo unspecified)	0.652	-2.1	2.1	-0.8	0.6	0.4%	-1.4
(listing goes on)
SMILES	E coli growth	B2AR ag	HNF4A DNA FP	UCH37 inh	A1 inh	Vif TR-FRET	LANA-H2A inh
CC1N(O)C(C)(C)C(c2ccccc2)=[N+]1[O-] (stereo unspecified)	0.672	5.0	1.4	1.2	-0.1	5.5%	5.1
COc1ccc(N/C=C(\C#N)S(=O)(=O)c2ccc(Cl)cc2)c(OC)c1	0.682	-3.3	1.0	3.8	-0.2	4.5%	-2.3
Cc1snc(SCc2cccc(Cl)c2)c1C#N	0.657	-4.0	-0.3	0.8	-0.4	-6.7%	-0.9
COc1ccc(C(=O)C23CC4CC(C2)CC(C(=O)c2ccc(OC)cc2)(C4)C3)cc1	0.697	-3.8	0.6	3.5	-0.4	26.4%	1.5
c1cncc(-c2nc(N3CCCCCC3)c3ccccc3n2)c1	0.733	31.9	1.4	-1.7	1.0	4.2%	9.6
O=S(=O)(Nc1ncccn1)c1ccccc1	0.642	-6.2	3.0	-0.4	-0.1	x	-2.6
FC(F)Sc1ccc(-n2cc(-c3ccc(Cl)cc3)[n+]3c2CCC3)cc1	0.656	-4.0	-0.7	3.0	0.1	0.1%	-0.1
COc1cc2c(cc1OC)C(C)N(C(=O)c1sc(-c3cnccn3)nc1C)CC2 (stereo unspecified)	0.651	x	x	7.2	-1.0	x	5.0
COC(=O)CCC(=O)OC1(C)C(=O)C=C2C=C(C3CC3)N(Cc3ccc4c(c3)OCO4)C=C2C1=O (stereo unspecified)	x	8.0	-2.6	x	0.4	x	7.1
C/C(CC(=O)Nc1ccc2c(c1)OCCO2)=N\NC(=O)COc1ccccc1	x	1.1	1.2	x	1.0	-0.6%	-2.7
OCC#Cc1ncc(C(F)(F)F)cc1Cl	0.684	8.8	-0.1	3.6	0.3	-0.1%	-0.3

Screening data as filed in PubChem.
